GALR2 ag: agonists of human galanin receptor 2 (GALR2); activation, %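 (tested at 5 µM)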; actives 0.48% (n = 140,000); GALR2-expressing cells, agonist activation read-out;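 active means above mean plus 3 SD of all compounds, about 5% in these data, not always enough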;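 further: 0% = vehicle buffer wells and 100% = reference agonist at full effect; tested in CHO reporter cells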
Target sequence (O43603 whole entry, looked up): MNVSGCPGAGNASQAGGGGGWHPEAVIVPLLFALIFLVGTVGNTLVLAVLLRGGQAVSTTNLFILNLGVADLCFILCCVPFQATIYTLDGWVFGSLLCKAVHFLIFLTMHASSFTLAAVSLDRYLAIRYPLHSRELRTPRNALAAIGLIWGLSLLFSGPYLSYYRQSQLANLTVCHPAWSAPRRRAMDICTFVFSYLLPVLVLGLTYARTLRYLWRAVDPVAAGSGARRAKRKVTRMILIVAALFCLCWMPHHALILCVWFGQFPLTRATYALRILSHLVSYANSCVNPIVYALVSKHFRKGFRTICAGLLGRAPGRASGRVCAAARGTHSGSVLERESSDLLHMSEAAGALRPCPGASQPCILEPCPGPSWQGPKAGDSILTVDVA
RGS16-Gao: modulates binding between human RGS16 and Galphao | O15492+P09471 | AID 1441 | binding response (% of control), % at 10 µM | actives 0.38% (n = 220,000) | bead-based flow cytometry RGS16-Galphao binding, fluorescence; actives lie on both sides;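 active means below 25% or above 175%, edge rows of some plates excepted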;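 further: Galphao activated by GDP with aluminum fluoride before binding; 100% = wells without compound and 0% = beads without RGS; some results beyond the cut were filed as inactive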
Target sequence (O15492 whole entry, looked up): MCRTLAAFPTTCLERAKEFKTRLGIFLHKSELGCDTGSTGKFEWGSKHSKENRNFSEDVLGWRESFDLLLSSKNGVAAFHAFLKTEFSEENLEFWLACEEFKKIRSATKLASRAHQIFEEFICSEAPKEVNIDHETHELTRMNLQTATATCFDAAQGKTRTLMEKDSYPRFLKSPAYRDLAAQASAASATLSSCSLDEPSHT
Target sequence (P09471 whole entry, looked up): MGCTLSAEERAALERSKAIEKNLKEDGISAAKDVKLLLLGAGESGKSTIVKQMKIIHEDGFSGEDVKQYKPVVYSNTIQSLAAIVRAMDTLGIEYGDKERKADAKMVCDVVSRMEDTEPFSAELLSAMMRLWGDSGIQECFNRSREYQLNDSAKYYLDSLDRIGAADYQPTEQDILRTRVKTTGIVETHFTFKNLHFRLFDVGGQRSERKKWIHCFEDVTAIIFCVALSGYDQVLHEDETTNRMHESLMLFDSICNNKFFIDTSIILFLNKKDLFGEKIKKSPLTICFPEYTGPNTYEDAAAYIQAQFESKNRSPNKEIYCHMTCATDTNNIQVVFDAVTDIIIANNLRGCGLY
HSV augment: increases HSV replication in cells. HSV replication augmentation in cells, fold increase. maximum fold increase. actives 0.005% (n = 220,000). AID 1956;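 active means peak rise of 1.5-fold or more in the series; tested in PC3 cells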;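 further: first round at 10 µM; read as green reporter fluorescence; hits show the peak of a series up to 25 µM; 1 = signal of infected wells without compound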
PKD1 inh: blocks activity of human protein kinase D1. inhibition, %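 (about 10 µM by stock and volumes)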. actives 0.056% (n = 200,000). AID 797. PKD1 kinase fluorescence polarization assay;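 active means inhibition of 50% or more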;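 further: controls were vehicle for no effect and a reference inhibitor for full effect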
Insulin prom inh: TRM-6 insulin promoter activity inhibition. inhibition, % at 2 µM. AID 1273. TRM-6 cells (human fetal islet line), insulin promoter-eGFP reporter, imaging; reporter expression induced with tamoxifen. actives 0.9% (n = 130,000);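 active means inhibition above the mean plus 3 SD, with well images judged a real hit on visual review, cut at about 60% in these data, passing the limit was not always enough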
Insulin prom inh cell count: further read-out of Insulin prom inh, marked with its call; normalized cell count, %; measured here: cell count, toxicity; reference of the scale not given here;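 cells exposed to compound for 48 h; stained nuclei by imaging scaled within each plate; lower means fewer cells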
HSV augment primary fold: second read-out of HSV augment, no call of its own (marks repeat the call); fold increase; compound at 10 µM; measured here: primary screen fold increase 10 uM; tested in PC3 cells;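 GFP signal in the first replicate; 1 = infected wells without compound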
The depositor's hits bear a star; i = inactive; . = no result given.

SMILES	GALR2 ag	RGS16-Gao	HSV augment	HSV augment primary fold	PKD1 inh	Insulin prom inh	Insulin prom inh cell count
CCN(CC)S(=O)(=O)c1cccc(-c2nnc(SCC(=O)c3ccc(Cl)s3)n2C)c1	-0.3	113	i	0.92	-17	0	108
COC(=O)C1C(O)=C(C=NCc2ccccc2)C(=O)CC1(C)C (centres undefined)	-1.2	96	i	0.9	-5	31	168
CCCc1cc(=O)[nH]c(SCC(=O)Nc2ccc([N+](=O)[O-])cc2C#N)n1	.	104	i	0.91	.	.	.
COc1ccc(OC)c(S(=O)(=O)NCC2CCCO2)c1 (centres undefined)	-1.3	104	i	0.97	-12	.	.
Cc1nn2c(N)c(C#N)cnc2c1-c1ccc(Cl)cc1	-3.1	105	.	.	-8	11	117
O=C(O)CCC(=O)N1CCN(c2ccc(C(=O)c3ccc(F)cc3)cc2)CC1	-2.7	68	i	0.95	-11	-86	94
O=C(NCc1cn(-c2ccccc2)nc1-c1ccccc1)c1cc([N+](=O)[O-])cc([N+](=O)[O-])c1	-3.3	80	i	1.1	12	-30	61
N#Cc1c(-c2ccccc2)c(-c2ccccc2)nn(CC(=O)NNC(=O)Nc2ccc(Cl)c(Cl)c2)c1=O	-1.1	95	i	0.9	-1	32	106
CCOC(=O)c1ccc(NC(=O)CSCc2ccco2)cc1	-1.1	113	i	1.1	0	-19	153
O=C(CSc1nnc(-c2ccccn2)n1Cc1ccco1)c1ccc(Cl)cc1	-1.5	102	i	0.77	5	-10	62
O=C(Nc1nc2ccccc2s1)C1CC(=O)N(c2ccc(F)cc2)C1 (centres undefined)	-0.7	106	i	1	-8	-11	105
C=CCSc1nc2[nH]ncc2c(=O)[nH]1	.	95	i	1	-2	.	.
CN(C)/C=N/S(=O)(=O)c1ccc(Cl)cc1	.	101	i	0.8	-5	.	.
O=C(CSc1nnc(Cc2ccccc2)o1)N1CCc2ccccc21	-2.6	129	i	0.95	-7	16	49
O=C(N/N=C/c1ccc(OC(=O)c2cccs2)cc1)c1ccc(F)cc1	-0.9	104	i	0.81	-2	.	.
CC(C)(C)NCC(O)c1cc(O)cc(O)c1 (centres undefined)	-0.6	98	i	0.96	-5	-43	117
Cc1nnc(Nc2ccc(C(=O)O)cc2)[nH]c1=O	.	104	i	0.88	-4	.	.
CC1CCN(CCCNC(=O)c2cc3c(=O)n(C)c4ccccc4c3n2C)CC1	-1.3	100	i	0.89	-2	.	.
O=C(COC(=O)CCc1ccc(S(=O)(=O)N2CCOCC2)cc1)NC1CCCC1	0.1	99	i	1.2	-2	.	.
CCN(CCCNC(=O)C1CCN(S(=O)(=O)CC)CC1)c1ccccc1	-1.4	103	i	0.94	-7	-29	90
Cc1c(NC(=O)Cn2cc([N+](=O)[O-])cn2)c(=O)n(-c2ccccc2)n1C	.	100	i	0.96	2	.	.
Cc1cc(C)cc(NC(=O)CN(c2ccc(F)cc2)S(C)(=O)=O)c1	.	97	i	1.1	-2	-56	111
Cc1noc(C)c1CSCC(=O)Nc1nc2ccc(Oc3ccccc3)cc2s1	-2.2	97	i	0.84	1	-43	90
Cc1nn(Cc2ccc(Cl)cc2Cl)c(Cl)c1/C=C/C(=O)OCC(=O)NCC(F)(F)F	0.4	96	i	0.97	3	23	137
COc1cccc(C(=O)Nc2ccc(NC(=O)c3ccco3)nc2)c1	-1.6	101	i	0.91	0	-50	112
SMILES	GALR2 ag	RGS16-Gao	HSV augment	HSV augment primary fold	PKD1 inh	Insulin prom inh	Insulin prom inh cell count
CCN(CC)S(=O)(=O)c1ccc(OC(C)C)c(N)c1	.	100	i	0.82	-2	21	126
Cc1n[nH]c(C)c1S(=O)(=O)N1CCCC(C(=O)NCc2cccs2)C1 (centres undefined)	-1.4	111	i	0.98	-3	.	.
CCc1c(C)nc2ncnn2c1N1CCCC(C(=O)NCCc2ccc(OC)cc2)C1 (centres undefined)	0.1	104	i	0.99	-18	.	.
O=C(CSc1nccc(=O)[nH]1)c1cc2ccccc2o1	.	94	i	1	.	.	.
C/C(=N/NC(=O)CNC(=O)C1COc2ccccc2O1)c1ccc2c(c1)OCCO2 (centres undefined)	.	96	i	0.77	-5	-53	87
CN(Cc1nc(Cc2ccccc2F)no1)CC1(N2CCOCC2)CCCCC1	.	103	i	1.2	-9	.	.
CCOc1ccc(Nc2nc3cc(S(=O)(=O)N(CC)CC)ccc3o2)cc1	-0.8	84	i	0.77	-3	-8	159
CCOC(=O)c1[nH]c2c(c1C)C(=O)CC(c1ccc(N(C)C)cc1)C2 (centres undefined)	-0.6	99	i	0.91	-11	.	.
Cn1c(=O)c(C(=O)COC(=O)c2cc(C3CC3)nc3ccccc23)c(N)n(Cc2ccccc2)c1=O	0.2	110	i	0.73	-1	25	86
COc1ccc(CC2(C)OC(c3ccc(C)cc3)=NN2C(C)=O)cc1 (centres undefined)	-0.6	106	i	0.95	-8	.	.
O=C(CC1Oc2ccccc2NC1=O)NC1CCCC1 (centres undefined)	-0.8	63	i	0.92	-8	.	.
O=C(CSc1ccccn1)N1CCN(c2ccc(Cl)cc2)CC1	-3.2	95	i	0.8	6	-33	126
CSc1nc(-c2ccccc2)nn1C(=O)c1ccccc1	-3.7	100	.	.	-1	22	120
C/C=C\C=C\C(=O)N1CC2(CC(c3cccc(NC(=O)/C(C)=C\C)c3)=NO2)C[C@H]1C(N)=O (some centres undefined)	.	98	i	0.88	.	.	.
CC1CCCCN1C(=O)Cn1cc(/C=C2/C(=O)Nc3ccccc32)c2ccccc21 (centres undefined)	-1.8	41	i	0.81	35	38	78
Cc1nonc1C(=O)N/N=C/c1ccccc1	.	105	i	1.1	-7	50	32
O=C(NC(=O)N1CCN(c2ccccc2)CC1)c1ccc(Cl)cc1	-1.4	99	i	0.97	0	38	160
Cc1c(C)c2c(C)[nH]nc2oc1=O	-1.2	100	i	1	2	42	84
CN(C)c1ccc(-c2nc3n(n2)C(c2cccnc2)C2=C(CC(C)(C)CC2=O)N3)cc1 (centres undefined)	1.7	107	i	0.99	1	36	70
Cc1cc(C)c(S(=O)(=O)c2ccccc2C)c(OCC(C)(C)C)n1	-2.3	98	i	0.93	9	-32	85
O=C(O/N=C(\c1ccccc1)c1ccncc1)c1ccccc1Cl	.	98	i	1.1	2	6	82
Cc1ccc(S(=O)(=O)N(C)c2c(C)ccc(S(=O)(=O)N3CCN(C)CC3)c2C)cc1	-1.0	106	.	.	3	-23	98
Cc1onc(-c2c(F)cccc2Cl)c1C(=O)OCC(=O)NCc1ccco1	-0.6	93	i	1	-9	.	.
Cc1cccc(-c2nc3ccccc3c(=O)n2NC(=O)c2ccc([N+](=O)[O-])c(C)c2)c1	-2.1	102	i	0.9	-14	-16	162
COC(=O)c1c(NC(=O)CC2NCCNC2=O)sc2c1CCCC2 (centres undefined)	-2.2	99	i	0.95	1	5	123
SMILES	GALR2 ag	RGS16-Gao	HSV augment	HSV augment primary fold	PKD1 inh	Insulin prom inh	Insulin prom inh cell count
Cc1ccc(S(=O)(=O)NCC(=O)OCC(=O)Nc2cccc(S(=O)(=O)NC3=NCCCCC3)c2)cc1	.	100	i	1	-6	78*	63*
COc1ccc(C)c2sc(NC(=O)C3=COCCO3)nc12	-1.1	109	i	0.92	-10	.	.
Cc1ccc(-c2nc3cccnc3s2)cc1NS(=O)(=O)c1ccc2c(c1)OCCO2	-1.1	101	i	0.75	-8	.	.
COc1cc(/C=C/C(=O)O)cc(S(=O)(=O)Nc2ccccc2Oc2ccccc2)c1OC	.	100	i	0.92	.	.	.
Nc1nc(CSCCO)nc(Nc2ccccc2)n1	-1.5	105	i	0.99	-6	-49	69
O=C(CCc1nc(-c2ccc(Cl)cc2)no1)OCc1ccc(Br)cc1	-1.1	.	i	0.82	-12	67	115
COc1ccccc1NC(=O)/C(C#N)=C/C=C/c1ccco1	-4.6	101	i	0.66	-5	-40	34
CNC(=S)N/N=C/c1ccc(-c2cc([N+](=O)[O-])ccc2Cl)o1	.	99	i	0.85	-2	.	.
CCNC(=O)COc1ccc(C=O)cc1OC	0.4	101	i	1.1	-9	.	.
CC(=O)NC(CC(=O)Nc1nc(C)cs1)c1ccccc1 (centres undefined)	.	104	i	1	-1	50	81
CC(C)[C@H](NC(=O)c1ccco1)C(=O)OCC(=O)N1CCc2ccccc21	-0.8	106	i	1	-2	16	170
N/C(=N\c1nc2ccccc2o1)NC(=O)c1ccccc1NC(=O)c1ccccc1	-0.8	78	i	1	1	43	170
CCOCCCNC(=O)C1CCCN(S(=O)(=O)CC)C1 (centres undefined)	-1.2	102	i	0.99	-7	-59	115
CSc1nnc(-c2sccc2OCc2ccccc2)n1C	-1.1	100	i	0.83	-1	.	.
CC1CCCCC1NC1=NCCS1 (centres undefined)	-1.8	101	i	0.99	-8	-12	187
COc1ccc(C(=O)Nc2cccc(-c3cc4ccccc4oc3=O)c2)cc1[N+](=O)[O-]	-0.1	107	i	0.93	1	.	.
O=C(O)CN1C(c2ccccc2O)Nc2ccc(Br)cc2C1c1ccccc1 (centres undefined)	.	111	i	1.1	2	.	.
CCOc1ccc(CSC(=N)N)cc1Cl	.	102	i	0.92	.	.	.
CC1(c2nnc(-c3ccccc3)o2)CC(c2ccncc2)=NO1 (centres undefined)	.	102	i	0.76	.	.	.
CO/N=C\C(=N\Nc1ccc(OC)cc1)C(=O)c1ccccc1	-3.5	100	i	1.1	2	-9	75
COc1ccccc1C(=O)N/C(=C\c1ccc(Br)cc1)C(=O)N1CCCC1	.	92	i	1	.	.	.
CC(=O)c1c(C)oc2c1cc(O)c1ccccc12	.	103	i	0.95	.	.	.
COc1ccc(NS(=O)(=O)c2ccc(Cl)s2)cn1	.	109	i	1.1	.	.	.
COc1ccc(Cn2c(C)nc3c(c(=O)c4ccccc4n3C)c2=O)cc1	.	107	i	1.2	.	.	.
O=C(COC(=O)CNS(=O)(=O)c1cccc(Br)c1)NC(=O)Nc1ccc2c(c1)OCCO2	-2.5	108	i	0.89	-7	-400	64

Five of the entries above in order of the GALR2 ag value, highest first.
molecule | GALR2 ag
CN(C)c1ccc(-c2nc3n(n2)C(c2cccnc2)C2=C(CC(C)(C)CC2=O)N3)cc1 (centres undefined) | 1.7
Cn1c(=O)c(C(=O)COC(=O)c2cc(C3CC3)nc3ccccc23)c(N)n(Cc2ccccc2)c1=O | 0.2
O=C(Nc1nc2ccccc2s1)C1CC(=O)N(c2ccc(F)cc2)C1 (centres undefined) | -0.7
O=C(CCc1nc(-c2ccc(Cl)cc2)no1)OCc1ccc(Br)cc1 | -1.1
COC(=O)c1c(NC(=O)CC2NCCNC2=O)sc2c1CCCC2 (centres undefined) | -2.2

Continuation.
SMILES	GALR2 ag	RGS16-Gao	HSV augment	HSV augment primary fold	PKD1 inh	Insulin prom inh	Insulin prom inh cell count
O=C(NCCc1cccs1)C1CC1	.	101	i	0.97	.	.	.
COc1c(O)ccc(/C=C(\C#N)c2nc3ccccc3[nH]2)c1[N+](=O)[O-]	-0.6	113	i	1.1	-6	.	.
COc1ccc(CC(=O)N/N=C(\C)c2ccccn2)cc1	-0.6	33	.	.	-3	0	119
CC1(C)Oc2ccc3ccc(=O)oc3c2/C(=C/Nc2ccc(O)cc2)C1=O	.	104	i	0.95	4	6	146
Cc1cccc(C(=O)Nc2cc(OCc3cccc(F)c3)c(Cl)cc2Cl)c1	-1.2	103	i	0.76	-9	20	46
COc1ccc(NC(=O)c2cc3c(s2)CCC3)cc1S(=O)(=O)N1CCOCC1	-0.7	98	i	0.96	-4	.	.
C[C@@]12CCC=C[C@H]1[C@H](c1ccc3ccccc3c1/C=C/c1ccccc1)N(Cc1ccccc1)C2=O	.	98	i	1.1	.	.	.
O=C(NC1CCCC1)C(c1ccncc1)N(Cc1ccco1)C(=O)c1ccc(-c2ccccc2)[nH]1 (centres undefined)	.	100	i	0.9	-1	-54	62
CCN(C(=O)COC(=O)c1cc(-c2ccccc2)nn1-c1ccccc1)C1CCS(=O)(=O)C1 (centres undefined)	.	102	i	1.1	-1	.	.
CCOCC(O)CNc1ccccc1 (centres undefined)	-0.1	111	i	1	9	0	137
COc1ccc2[nH]c(=O)c(CN(Cc3nnnn3CCc3ccccc3)CC3CCCO3)cc2c1 (centres undefined)	0.0	91	i	0.95	14	-100	109
CC(=O)Nc1ccc(S(=O)(=O)NC2=C(N3CCN(Cc4ccccc4)CC3)C(=O)c3ccccc3C2=O)cc1	-2.5	105	.	.	4	-3	85
CC(=O)NCC(=O)OCC(=O)N1c2ccccc2Sc2ccccc21	.	102	i	0.94	7	.	.
O=c1[nH]c2ccccc2n1C1=CCNCC1	.	98	i	1	.	.	.

In another format: entries from further up
canonical_smiles | GALR2 ag | RGS16-Gao | HSV augment | HSV augment primary fold | PKD1 inh | Insulin prom inh | Insulin prom inh cell count
CC(=O)Nc1ccc(S(=O)(=O)NC2=C(N3CCN(Cc4ccccc4)CC3)C(=O)c3ccccc3C2=O)cc1 | -2.5 | 105 | . | . | 4 | -3 | 85
CC(=O)NCC(=O)OCC(=O)N1c2ccccc2Sc2ccccc21 | . | 102 | i | 0.94 | 7 | . | .
O=c1[nH]c2ccccc2n1C1=CCNCC1 | . | 98 | i | 1 | . | . | .
